# Source: PubChem
# StopGo FLuc – lowers the firefly signal of an FMDV 2A StopGo reporter; Potency, µM (titrated, usually from 57.5 µM), for the others: at the highest dose signal change, negative = less light; HEK cells with a luciferase reporter of 2A StopGo recoding; AID 1745856; 120,000 tested, 0.23% active; active = well fitted falling curve with a large enough effect; inconclusive = small, poorly fitted or top-dose-only effect; inactive = no such curve, though single readings can be large or run the other way; further: nearly all actives have a fitted effect of over 60% in size; overnight with compound
# 2A Renilla – FMDV 2A StopGo reporter, Renilla signal; Potency, µM (doses to about 57.5 µM), inactives show at the top dose signal change, negative = less light; HEK cells with a luciferase reporter of 2A StopGo recoding; 120,000 tested, 0.32% active; active means well fitted falling curve with a large enough effect; inconclusive means small, poorly fitted or top-dose-only effect; inactive means no such curve, though single readings can be large or run the other way; further: nearly all actives have a fitted effect of over 55% in size; overnight with compound
# Starred values were filed as active, the others as inactive; ? = inconclusive; [ ] = another dose, or the depositor's remark. On the % scale 0 is the no-effect control and ±100 the full control effect; potency means the concentration at half of the fitted maximal effect. Rows were taken by chance; any-hit rate near 0.55%.
SMILES,StopGo FLuc,2A Renilla
COc1ccc(NC(=O)Cn2c(=O)n(-c3ccc(C)cc3)c(=O)c3c2c2cc(C)ccc2n3C)cc1,-9%,-15%
Cn1c(Sc2ncnc3scc(-c4ccccc4)c23)nnc1-c1ccccc1F,?,1%[1.06 µM]
CCCCN(C)C(=O)C1CCCN(c2ncnc3onc(-c4ccc(F)cc4)c23)C1 (stereo not drawn),-12%,-6%
CCOC(=O)c1ccc(NC(=O)CSc2cc(-c3ccccc3)nc(C)n2)cc1,-7%,-8%
CCN(CC)CCCC(C)NC(=O)Nc1ccc(Cl)cc1 (stereo not drawn),33%[activator],-14%
CCOc1cc(C2c3c(-c4ccccc4O)n[nH]c3C(=O)N2Cc2cccnc2)ccc1O (stereo not drawn),-16%,13%
CCN(CC)C(=O)CSc1nc(-c2ccccc2)c(-c2ccccc2)o1,23%,58%[activator]
O=C(NCCCN1CCCC1)c1cccs1,3%,-1%
COCCCn1c(=N)c(S(=O)(=O)c2ccccc2)cc2c(=O)n3cc(C)ccc3nc21,6%,5%
Cc1ccc(CN2CCC(CNc3ncnc4onc(-c5ccc(Cl)cc5)c34)CC2)cc1,-11%,-6%
CC1(C)CCC[C@@]2(C)C1CCC1(C)OC(=O)C[C@@H]12 (stereo partly drawn),2%,-6%
Cc1cc(C(=O)CSc2nc3ccccc3o2)c(C)n1C,241%[activator],56%[activator]
COc1ccccc1NC(=O)C1=C(C)Nc2nc(SCc3ccccc3)nn2C1c1ccncc1 (stereo not drawn),-8%,-3%
CCOC(=O)C1CCCN(Cc2cn3c(-c4ccc(Br)cc4)nnc3s2)C1 (stereo not drawn),-13%,?
COc1ccc(OC)c(C(=O)N2CCC(C(=O)O)CC2)c1,0%,-5%
COc1ccc(NC(=O)CN2CCN(C3CCCCC3)C(=O)C2=O)cc1,0%,7%
Cc1ccc2c(=O)cc(C(=O)Nc3nc4ccc(Cl)cc4s3)oc2c1,-8%,0%
CSc1cccc(C(=O)Nc2nc(-c3nc4ccccc4s3)cs2)c1,50%[activator],1%
O=C(NC1CCCCC1)C1=Cc2cc(Br)ccc2OC1,160%[activator],18%
Cc1cc(C)c2c(=O)cc(C(=O)Nc3sc4c(c3C(=O)NCc3ccccc3)CCCC4)oc2c1,-14%,-8%
COc1cccc(C(=O)Nc2ccc3oc(-c4cccc(Cl)c4)nc3c2)c1,26%,-8%
Cc1cccc(-n2ccnc2SCC(=O)Nc2cccc3ccccc23)c1,?,-24%
COc1cccc(N2CCN(Cc3nnc(-c4ccc5c(c4)OCO5)o3)CC2)c1,-3%,-9%
Cc1cn2c(=O)cc(COC(=O)CSc3ccccc3)nc2s1,-1%,-7%
CC(C)c1ccc(/C=C(/C#N)c2nc3ccccc3[nH]2)cc1,22%,?
C/C(=N\NC(=S)Nc1ccccc1)c1cccc(C(F)(F)F)c1,67%[activator],26%
Cc1ccc(O)c(NC(=O)COc2ccc3c(=O)c(-c4ccccc4)c(C)oc3c2)c1,1%,-1%
O=C(NC1CCCC1)c1cc(-c2ccncc2)nc2ccccc12,-15%,-13%
Cc1noc(C)c1COc1ccc(CC(=O)Nc2ncccc2O)cc1,8%,8%
O=C(c1ccccc1)N1CCc2cc(CNS(=O)(=O)c3ccccc3Cl)ccc21,-26%,12%
Cc1ccc(NC(=O)Nc2ccc3nc(NS(=O)(=O)c4ccccc4)sc3c2)cc1,66%[activator],40%[activator]
COc1ccc(NC(=O)N[C@@H](CCSC)C(=O)O)cc1,34%[activator],10%
Cc1ccc(-n2nnnc2Sc2nnnn2-c2ccccc2)c(C)c1,?,25µM*
O=c1oc2cc(O)ccc2c(O)c1-c1ccccc1,5%,-3%
CCCCn1cnc2c1c(=O)n(CC(=O)Nc1cccc(Cl)c1)c(=O)n2CC(C)C,1%,0%
Cc1ccc(OCC(=O)Nc2ccc3oc(-c4ccccc4)nc3c2)c(C)c1,-1%,-9%
COc1ccc(-c2csc(Nc3cccc4ccccc34)n2)cc1,90%[activator],4%
CCc1noc(CN2CCN(c3oc(-c4ccco4)nc3C#N)CC2)n1,10%,5%
CCCn1nc(C)cc1CN(C)c1ccc(NS(=O)(=O)c2cccc(Cl)c2C)cc1C(=O)O,0%,28%
O/N=C1\CCCc2c1[nH]c1ccc(OCc3ccccc3)cc21,0%,22%
CCc1ccc(NC(=O)CN2CCCN(Cc3cccc(Cl)c3)S2(=O)=O)cc1,-14%,7%
CCC(C)NC(=O)N1CCC2(CC1)NC(=O)c1ccccc1O2 (stereo not drawn),26%,1%
CN(CCC1CCCCN1C)Cc1cccc(C#N)c1 (stereo not drawn),5%,12%
Cc1nn(-c2ccc(F)cc2)c(-n2cccc2)c1C(=O)N1CCCCC1C (stereo not drawn),-2%,8%
CCOc1ccc(NCc2cccn2-c2nnc(N3CCC(C(=O)NCCOC)CC3)s2)cc1,0%,6%
O=S1(=O)c2ccccc2N(Cc2ccc(Cl)cc2)c2ccccc21,-18%,15%
CCn1c(SCC(=O)Nc2ccc(C(=O)O)cc2)nnc1-c1ccccc1Cl,-6%,-7%
CCc1cc(C(=O)NNC(=S)NC)cs1,0%,5%
O=c1c2ccccc2c(-c2cccs2)nn1CC(O)COCc1ccccc1F (stereo not drawn),10%,45%[activator]
CCN1CCN(c2csc3ccc(Br)cc3c2=O)CC1,62%[activator],27%
Cc1ccc(CNC(=O)Cn2ccn(-c3cccc(Cl)c3)c(=O)c2=O)cc1,-15%,-3%
Cc1ccccc1-c1nnc(SCC(=O)N(C)C2CCCCC2)o1,44%[activator],-11%
CCC(=O)N1CCN(c2oc(/C=C/c3ccccc3Cl)nc2C#N)CC1,37%[activator],-4%
CN(CC(=O)NC(=O)NCc1ccco1)Cc1cccc(Cl)c1Cl,7%,-3%
CCc1cc(OCCCCOc2ccc(C=O)cc2OC)ccc1Cl,23%,17%
COc1cccc(N2CCN(C(=O)c3cccc(NC(=O)c4nsc5ccccc45)c3)CC2)c1,54%[activator],-4%
COc1ccc(NC(=O)Cn2c(=O)n(CC3CCCO3)c(=O)c3ccccc32)c(OC)c1 (stereo not drawn),-6%,-2%
COc1ccccc1-c1nc(-c2cc3cccc(OC)c3oc2=O)cs1,22%,6%
CSc1ccccc1C(=O)Nc1ccc2c(c1)-c1ccccc1C2,202%[activator],31%[activator]
Cc1c(C(=O)N2CCN(c3ccccc3)CC2)sc2nc3n(c(=O)c12)CCC3,0%,-19%

# Profiles as entered above.
# COc1ccc(NC(=O)Cn2c(=O)n(-c3ccc(C)cc3)c(=O)c3c2c2cc(C)ccc2n3C)cc1 as listed: StopGo FLuc: -9%; 2A Renilla: -15%
# CCc1cc(OCCCCOc2ccc(C=O)cc2OC)ccc1Cl as listed: StopGo FLuc: 23%; 2A Renilla: 17%

# Other entries follow.
SMILES,StopGo FLuc,2A Renilla
CCN(C(=O)c1cc2ccccc2oc1=O)c1nc2ccccc2s1,36%[activator],5%
COc1ccc(C(C)=O)cc1CN1CCCCC1,-3%,-18%
CN(C)CCCN(C(=O)COc1ccccc1)c1nc2ccc(Cl)cc2s1,19%,-19%
CCCNC(=O)COc1ccc(-c2noc(-c3ccccc3)n2)cc1OCC,19%,1%
Cc1ccc(C(=O)NC(C)c2cccc(C(F)(F)F)c2)cn1 (stereo not drawn),12%,9%
Cc1c(C(=O)N2CCN(c3ccc(F)cc3)CC2)sc2nc3n(c(=O)c12)CCC3,0%,-9%
NC(=O)CC1CCCCN1C(=O)CCc1ncc(-c2ccccc2)o1 (stereo not drawn),120%[activator],-6%
Cc1c(C(=O)N2CCOC(C)C2)cnn1-c1ccc(F)cc1 (stereo not drawn),16%,-7%
Cn1nc(C(=O)OCCOc2cccc(Br)c2)c2ccccc2c1=O,21%,4%
Cc1ccc(C(CNC(=O)c2cc(=O)c3cc(Br)ccc3o2)N(C)C)o1 (stereo not drawn),-5%,2%
Cc1ccc2ncc(S(=O)(=O)c3ccccc3)c(N3CCCCC3C)c2c1 (stereo not drawn),1%,66%[activator]
COc1cc(F)ccc1C1=NN(C(C)=O)C(c2ccc3nccnc3c2)C1 (stereo not drawn),14%,-2%
Cc1ccc2nc(NC(=O)CSc3nccn3Cc3ccc4c(c3)OCO4)sc2c1,0%,7%
N#CC1=C(SCc2ccccc2)NC(=O)C(C#N)C12CCCC2 (stereo not drawn),?,?
CC1CCN(S(=O)(=O)N2CCCC(c3nc4ccccc4o3)C2)CC1 (stereo not drawn),4%,-6%
Cc1ccc(CNC(=O)c2sc3ncnc(N(C)C4CCCCC4)c3c2C)cc1,11%,127%[activator]
O=C1C(c2[nH]c3ccccc3c2O)=Nc2ccccc21,-12%[11.5 µM],-3%
CCOC(=O)C1CCCN(S(=O)(=O)c2cc(-c3onc(C)c3C)ccc2OC)C1 (stereo not drawn),6%,123%[activator]
CN(C(=O)COC(=O)c1ccc2ccccc2n1)c1ccccc1,2%,-7%
CC(C)c1ccc(CN(C(=O)Cc2n[nH]c(=O)c3ccccc23)C2CC2)cc1,-24%,-13%

# Taken from above:
# Entry for `Cc1ccc2nc(NC(=O)CSc3nccn3Cc3ccc4c(c3)OCO4)sc2c1` in StopGo FLuc: 0%
# Entry for `Cc1ccc(C(CNC(=O)c2cc(=O)c3cc(Br)ccc3o2)N(C)C)o1` (stereo not drawn) in 2A Renilla: 2%
# Entry for `CN(C)CCCN(C(=O)COc1ccccc1)c1nc2ccc(Cl)cc2s1` in StopGo FLuc: 19%

# The list goes on.
SMILES,StopGo FLuc,2A Renilla
COc1ccc(-c2noc(CSc3nnc(-c4ccncc4)n3-c3cccc(C)c3)n2)cc1OC,-17%,8%
O=C(Nc1cccc(C(=O)NC2CC2)c1)c1cccc(S(=O)(=O)Nc2ccc(F)cc2)c1,-15%,129%[activator]
CN(C)c1ccc(CNC(=O)CCCN2C(=O)CCn3nc(-c4cccn4C)cc32)cc1,1%,-12%
CCC1CCCCN1C(=O)c1ccc2c(c1)N(Cc1cccc(Cl)c1)C(=O)c1ccccc1S2(=O)=O (stereo not drawn),-17%,23%
Cc1ccc(N(C(C)C(=O)NCc2ccc(Cl)cc2Cl)S(C)(=O)=O)cc1C (stereo not drawn),6%,1%
CC(=O)c1ccc(NC(=O)CCc2c(C)nc3cc(-c4ccc(Cl)cc4)nn3c2C)cc1,?,-9%
CCN(CC)CCCNC(=O)CN1C(=O)COc2ccc(S(=O)(=O)N3CCC(C)CC3)cc21,-11%,-5%
O=C(/C=C/c1ccccc1Cl)c1cccc(O)c1,0%,60%[activator]
COc1cc(SC)ccc1C(=O)Oc1ccccc1C,114%[activator],2%
COc1cccc(NC(=O)CN(C)CC(=O)Nc2c(C)cccc2C)c1,-12%,-8%

# By substructure, the entries above with an aryl methoxy group (18)
SMILES,StopGo FLuc,2A Renilla
COc1ccc(NC(=O)Cn2c(=O)n(-c3ccc(C)cc3)c(=O)c3c2c2cc(C)ccc2n3C)cc1,-9%,-15%
COc1ccccc1NC(=O)C1=C(C)Nc2nc(SCc3ccccc3)nn2C1c1ccncc1 (stereo not drawn),-8%,-3%
COc1ccc(OC)c(C(=O)N2CCC(C(=O)O)CC2)c1,0%,-5%
COc1ccc(NC(=O)CN2CCN(C3CCCCC3)C(=O)C2=O)cc1,0%,7%
COc1cccc(C(=O)Nc2ccc3oc(-c4cccc(Cl)c4)nc3c2)c1,26%,-8%
COc1cccc(N2CCN(Cc3nnc(-c4ccc5c(c4)OCO5)o3)CC2)c1,-3%,-9%
COc1ccc(NC(=O)N[C@@H](CCSC)C(=O)O)cc1,34%[activator],10%
COc1ccc(-c2csc(Nc3cccc4ccccc34)n2)cc1,90%[activator],4%
CCc1cc(OCCCCOc2ccc(C=O)cc2OC)ccc1Cl,23%,17%
COc1cccc(N2CCN(C(=O)c3cccc(NC(=O)c4nsc5ccccc45)c3)CC2)c1,54%[activator],-4%
COc1ccc(NC(=O)Cn2c(=O)n(CC3CCCO3)c(=O)c3ccccc32)c(OC)c1 (stereo not drawn),-6%,-2%
COc1ccccc1-c1nc(-c2cc3cccc(OC)c3oc2=O)cs1,22%,6%
COc1ccc(C(C)=O)cc1CN1CCCCC1,-3%,-18%
COc1cc(F)ccc1C1=NN(C(C)=O)C(c2ccc3nccnc3c2)C1 (stereo not drawn),14%,-2%
CCOC(=O)C1CCCN(S(=O)(=O)c2cc(-c3onc(C)c3C)ccc2OC)C1 (stereo not drawn),6%,123%[activator]
COc1ccc(-c2noc(CSc3nnc(-c4ccncc4)n3-c3cccc(C)c3)n2)cc1OC,-17%,8%
COc1cc(SC)ccc1C(=O)Oc1ccccc1C,114%[activator],2%
COc1cccc(NC(=O)CN(C)CC(=O)Nc2c(C)cccc2C)c1,-12%,-8%
